NPYLR7 agonist = activates Aedes aegypti NPYLR7 receptor; HEK293T NPYLR7/Galpha15, GCaMP6s calcium fluorescence; activation, % at 10 µM; 270,000 compounds, 0.15% hits; AID 1259423; in the data active means activation above about 40%;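 further: 0% = vehicle and 100% = reference agonist at the receptor; some compounds past the cut are filed as inactive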
NPYLR7 agonist max-min = second read-out of NPYLR7 agonist, no call of its own (marks repeat the call); activation, %; measured here: Max-Min RFU normalised activation; some inactives read as strong as hits;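 span of the calcium signal over five minutes; 0% = vehicle and 100% = native peptide agonist; compound fluorescence can raise it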
* = called active by the depositor; & = joins results of further samples. These rows are one share of the data. The share of hits here may be higher or lower than overall.

entry	SMILES	NPYLR7 agonist	NPYLR7 agonist max-min
1	COc1ccc(Cl)cc1CN1C(=O)C(C)Sc2ccc(C#N)cc21 (stereo not drawn)	-7	-8
2	CCCCOC(=O)CCc1nc2ccccc2[nH]c1=O	1	0
3	CCOCC(=O)Nc1cc(C)nn1-c1ncnc2c1cnn2-c1ccc(C)cc1C	4	2
4	Cc1ccc(S(=O)(=O)N2CCN(c3nc(Cc4ccccc4)nc4cc(Cl)ccc34)CC2)cc1	-1	13
5	COCc1cc(C)nc(N/N=C\c2c3ccccc3cc3ccccc23)c1C#N	-5	-6
6	COc1ccc(OC)c(NC(=O)N2CCN(CC(OCc3ccc(C(F)(F)F)cc3)c3ccc(Cl)cc3)CC2)c1 (stereo not drawn)	19	5
7	CCc1c(C)nc(-n2nc(C)cc2C)n(CC(=O)Nc2ccccc2C)c1=O	4	3
8	Cn1c(=O)c2c(SCC(=O)Nc3nccs3)nc(-c3cccc(F)c3)nc2n(C)c1=O	-2	-7
9	CCOC(=O)c1nc2cc(Cl)c(Cl)cc2nc1N1CCCN(C(=O)C(C)(C)OC(C)=O)CC1	3	0
10	CCn1cc(C(CC(=O)NCCN2CCCCC2)c2ccc(C)cc2)c2ccccc21 (stereo not drawn)	5	17
11	Cc1nc2sc3c(NCC(C)C)ncnc3c2c2c1COC(C)(C)C2	9	3
12	Cc1nccn1-c1cc(NCCNC(=O)c2ccccc2F)ncn1	-18	-25
13	CC(=O)c1cccc(-c2ccc3c(c2)C(C)(Cc2ccc(C(F)(F)F)o2)C(=O)N3)c1 (stereo not drawn)	2	2
14	Cc1[nH]c(C(=O)C(C)N2CCN(C/C=C/c3ccccc3)CC2)c(C)c1C(=O)O (stereo not drawn)	4	8
15	O=c1c2cc(F)ccc2ncn1Cc1ncn[nH]1	11	5
16	CN(C)c1ncnc2c1CCN(S(=O)(=O)c1ccc(Cl)s1)C2	4	1
17	CCC1SC(c2ccc(F)cc2F)N(CCNC)C1=O (stereo not drawn)	-2	-7
18	Cc1ccc2occ(C=NN3CC(=O)NC3=O)c(=O)c2c1	-2	-3
19	O=C(Cn1cc([N+](=O)[O-])cn1)N1CCOCC1	1	-2
20	CN=c1scc(-c2ccccc2F)n1N=Cc1ccc2c(c1)OCO2	1	-2
21	O=C(NCCN1CCCCC1)C1CCN(c2nc3c(-c4ccccc4F)csc3c(=O)[nH]2)CC1	-6	-8
22	Cc1ccccc1Cn1cc(C(=O)NCc2csc(N)n2)nn1	14	9
23	CC(C)C1CN(C(=O)c2cn(C3CCC(N)CC3)nn2)CCCN1CC1CC1 (stereo not drawn)	6	1
24	COC(=O)c1sc(N)c(C(=O)OC)c1CC#N	3	5
25	COc1ccc2c(c1)CCC1C2CC[C@@]2(C)C1CC[C@@H]2O (stereo partly drawn)	-9	-13
26	CC(CCC(C)C)=NNc1ccc(S(N)(=O)=O)cc1[N+](=O)[O-]	-1	-4
27	CCN(CC)c1n[nH]c(-c2cccc(Cl)c2)n1	7&-1	5&-1
28	COc1ccc(NC(=O)N2CCCC(O)(CN(C)C)CC2)cc1Cl (stereo not drawn)	8	6
29	O=C(Cn1cc(COc2ccc(Cl)c(Cl)c2)nn1)NS(=O)(=O)c1ccccc1C(F)(F)F	7	4
30	O=C(NCc1csc(-c2ccco2)n1)C1CCc2ccccc21 (stereo not drawn)	1	1
31	COc1cc(F)ccc1-c1c(-c2ccccc2)ncn1CCS(C)(=O)=O	5	1
32	O=C(CCc1cccnc1)N1CCn2nc(C(=O)N3CCCC3)cc2C1	-2	-2
33	Cc1ccccc1-n1c(CCc2ccccc2O)n[nH]c1=O	31	18
34	O=C1NC(c2ccccc2)(c2ccccc2)C(=O)N1CC(=O)N(C1=CCCCC1)C1CC1	2	-1
35	COc1ccc(CNC(=O)c2ccc(-n3nc(C)cc3C)cc2)c(OC)c1	1	-7
36	CC1CCN(c2nc(Cl)nc(NCCN3CCOCC3)n2)CC1	13	7
37	COCCNC(=O)c1coc(CN(Cc2ccc(F)cc2)Cc2ccc(Cl)cc2Cl)n1	7	24
38	CCN(CC)c1ncc(C(=S)N=P(N(C)C)(N(C)C)N(C)C)s1	7	6
39	Cc1ccc(OCC2c3ccsc3CCN2C(=O)CN(Cc2ccco2)C(=O)c2ccccc2Cl)cc1 (stereo not drawn)	-3	2
40	COc1cccc(CN2CC(C(=O)N(C)Cc3ccc(C)cc3)CCC2=O)c1 (stereo not drawn)	6	4
41	CN1CCCCC1C(=O)OCc1ccc(C#N)cc1 (stereo not drawn)	0	-8
42	COCCCN(Cc1c(-c2ccccc2)noc1N(C)C(C)C)C(=O)c1ccccc1OC	8	13
43	CCOC(=O)c1c(C)cc(C)n2c1nc1ccccc12	-2	-4
44	CC(C)c1cc(=O)[nH]c(-n2nc(-c3cccs3)cc2N)n1	-7	-8
45	CNC(=O)CSc1c(C)cnc2c1c(=O)n(C)c(=O)n2C	8	16
46	CCSc1ccccc1NC(=O)N1CCCC(CCO)C1 (stereo not drawn)	1	0
47	Cc1cc(C)cc(NC(=O)CC(=O)NCC2CC(=O)N(C3CC3)C2)c1 (stereo not drawn)	8	6
48	COC1CCN(S(=O)(=O)c2ccccc2)CC(=O)N(C)c2ccccc21 (stereo not drawn)	-2	10
49	Cc1cc(NCCC(O)(c2ccc(C)o2)C(F)(F)F)nc(C)n1 (stereo not drawn)	-4	-5
50	COc1ccc(Cn2nnnc2SCC(=O)N2CCNC2=O)cc1	2	0

The list continues.
entry	SMILES	NPYLR7 agonist	NPYLR7 agonist max-min
51	CCc1ccc(N2C3=[N+](CCCS3)CC2(O)c2ccc(OC)c(OC)c2)cc1 (stereo not drawn)	3	4
52	COc1ccc(/C(C)=N\OCC(=O)N2CCOC(COc3ccc(F)cc3)C2)cc1 (stereo not drawn)	23	25
53	COc1ccccc1/C=C/c1nc2cc(C)ccn2c1NC1CCCCC1	1	9
54	Cn1c(C(=O)N2CCOCC2)cc2sc(Cl)cc21	6	9
55	CN(C)C(=O)C(Cc1ccccc1)NC(=O)C1(C)CC1(Cl)Cl (stereo not drawn)	11	2
56	COc1ccc(CNC(=O)c2sc(=O)n(Cc3ccc(SC)cc3)c2C)cc1	10	3
57	Cc1ccc(C(C)CNC(=O)N2CCOC(C3CCCO3)C2)cc1 (stereo not drawn)	3	1
58	CC1Nc2ncnn2C(c2ccccc2)C1C(=O)Nc1ccc(Cl)cc1 (stereo not drawn)	1	0
59	COc1ccc(NC(=O)N2CCc3ccccc3C2c2ccc(F)cc2)c(OC)c1 (stereo not drawn)	-2	0
60	CSc1ncc(CN2CCC(CO)(CCOc3ccccc3)CC2)cn1	-14	-17
61	CCN(CC)C(=O)CSc1nc2ccccc2c(=O)n1-c1ccc(F)cc1F	2	-2
62	Cc1nc(SCC(=O)N2c3ccccc3Sc3ccccc32)n[nH]1	-8	-10
63	COc1ccc2nc(N3CCN(C(=O)C4CCCN4S(C)(=O)=O)CC3)sc2c1 (stereo not drawn)	-4	-6
64	CCC1CN(Cc2noc(C)n2)CCC(=O)N1Cc1ccccc1 (stereo not drawn)	-1	33
65	COc1cccc(C2=CCN(c3nccc(OC)n3)CC2)c1	-3	-4
66	COc1nc(-c2cccs2)n(-c2cccc(NC(=O)c3ccc(F)cc3)c2)n1	22	29
67	Cc1nc2ccc(CC(=O)NCCS(=O)(=O)N(C)C)cc2[nH]1	0	-5
68	Cc1cc(C)cc(N2CN=C3SCC(=O)N3C2)c1	13	3
69	CC(=O)Nc1ccc(CN(C)c2c(C)nc3ccc(C(=O)N(C)Cc4ccccc4)cn23)cc1	1	-6
70	CCc1nc2n(n1)C(=O)C(C(c1ccc(OC)cc1)N1CCCCC1)S2 (stereo not drawn)	-2	32
71	O=C(NC(c1cccs1)c1cccs1)C1CC12CCCC2 (stereo not drawn)	-2	-4
72	CCn1c(C2CC(=O)N(c3cccc(C(F)(F)F)c3)C2)nc2ccccc21 (stereo not drawn)	-1	-4
73	COc1ncc(C(=O)NC2CC(=O)N(CCc3ccc(F)cc3)C2)cn1 (stereo not drawn)	0	-2
74	CC(CC(=O)Nc1cc(-c2onc3c2CCCC3)ccc1Cl)CC(C)(C)C (stereo not drawn)	2	-3
75	CN1CCN(Cc2nc3c(c(=O)n(C)c(=O)n3C)n2Cc2ccccc2F)CC1	3	5
76	CCC(Nc1nc(C2CCCC2)nc2c1cnn2C)c1ccncc1 (stereo not drawn)	0	0
77	CS(=O)(=O)c1ccccc1-n1nnnc1S(C)(=O)=O	-2	-1
78	CN(Cc1ccc(-n2cncn2)cc1)Cc1nc2ccccc2n1C	6	3
79	CN(Cc1c(F)cccc1Cl)C(=O)CSc1nnc(-c2ccccc2F)n1C1CC1	5	1
80	CCOc1ccc(Nc2sc(C(=O)c3ccccc3)c(N)c2S(=O)(=O)CC)cc1	-8	-9
81	COC(C)c1cccc(-c2ncnc3ccsc23)c1 (stereo not drawn)	1	3
82	Cc1nc(CCC(=O)N2CCOC(c3ccc(Cl)c(Cl)c3)C2)n[nH]1 (stereo not drawn)	4	1
83	O=C(NCc1c(-c2ccc(F)cc2)nc2n1CCS2)c1cccnc1	-4	-4
84	Cc1ccc(-n2c(=O)[nH]c3c(C(N)=O)nc(-c4ccccc4O)nc32)cc1C	-7	-10
85	Cc1cn2c3c(=O)[nH]c(=O)n(C)c3nc2n1-c1ccc(F)cc1	1	-4
86	CCc1cn[nH]c1C1CCN(C(=O)C2(c3ccc(OC)cc3)CC2)CC1	0	-1
87	CNC(=O)CCC(NC(=O)OC(C)(C)C)c1ccccc1 (stereo not drawn)	1	7
88	CN(CC(=O)NCC1CCCN(C)C1)Cc1ccccc1F (stereo not drawn)	32	23
89	CC(NC(=O)C1CCN(CCCc2ccccc2)CC1)c1cccc2ccccc12 (stereo not drawn)	5	-9
90	CC(C)O[C@H]1CN(c2nc(-c3ccncc3)nc3c2CNC3)C[C@@H]1O	1	-1
91	NC(=NC(=O)c1ccccc1)N1N=CCC1c1ccccc1 (stereo not drawn)	3	2
92	NS(=O)(=O)c1cccc(NC(=O)/C=C/c2cc(Cl)ccc2Cl)c1	1	-1
93	COc1cc(NC(=O)N(CC(=O)N(CCc2c[nH]c3ccccc23)Cc2ccc(C(F)(F)F)cc2)C2CC2)cc(OC)c1	18	20
94	Cc1cc(C(F)(F)F)nn1Cc1n[nH]c(=S)n1CC(C)C	8	15
95	C=c1c(C#N)c2[nH]c(N)c(C#N)c(C)c-2/c1=C\c1ccc(I)o1	3	13
96	Cc1cc(C)nc(SCc2cc(=O)c(OC(=O)COc3ccc(Cl)cc3)co2)n1	-12	-6
97	Cc1noc(C)c1C(=O)NCc1ccc(CN2CCC(C)CC2)cc1	2	0
98	CCn1c(SCC(=O)Nc2cc(C)cc(C)c2)nnc1-c1cccn(C)c1=O	-2	-3
99	Cc1nc2ccccc2n1C(=O)c1ccccc1C(=O)O	16	10
100	COc1ccc(N(CCC(N)=O)Cc2cn3cc(Cl)ccc3n2)cc1	5	1

17 structures from above, sorted by molar mass, highest first:
entry	SMILES	NPYLR7 agonist	NPYLR7 agonist max-min
79	CN(Cc1c(F)cccc1Cl)C(=O)CSc1nnc(-c2ccccc2F)n1C1CC1	5	1
95	C=c1c(C#N)c2[nH]c(N)c(C#N)c(C)c-2/c1=C\c1ccc(I)o1	3	13
89	CC(NC(=O)C1CCN(CCCc2ccccc2)CC1)c1cccc2ccccc12 (stereo not drawn)	5	-9
98	CCn1c(SCC(=O)Nc2cc(C)cc(C)c2)nnc1-c1cccn(C)c1=O	-2	-3
84	Cc1ccc(-n2c(=O)[nH]c3c(C(N)=O)nc(-c4ccccc4O)nc32)cc1C	-7	-10
92	NS(=O)(=O)c1cccc(NC(=O)/C=C/c2cc(Cl)ccc2Cl)c1	1	-1
82	Cc1nc(CCC(=O)N2CCOC(c3ccc(Cl)c(Cl)c3)C2)n[nH]1 (stereo not drawn)	4	1
100	COc1ccc(N(CCC(N)=O)Cc2cn3cc(Cl)ccc3n2)cc1	5	1
83	O=C(NCc1c(-c2ccc(F)cc2)nc2n1CCS2)c1cccnc1	-4	-4
97	Cc1noc(C)c1C(=O)NCc1ccc(CN2CCC(C)CC2)cc1	2	0
78	CN(Cc1ccc(-n2cncn2)cc1)Cc1nc2ccccc2n1C	6	3
94	Cc1cc(C(F)(F)F)nn1Cc1n[nH]c(=S)n1CC(C)C	8	15
85	Cc1cn2c3c(=O)[nH]c(=O)n(C)c3nc2n1-c1ccc(F)cc1	1	-4
88	CN(CC(=O)NCC1CCCN(C)C1)Cc1ccccc1F (stereo not drawn)	32	23
77	CS(=O)(=O)c1ccccc1-n1nnnc1S(C)(=O)=O	-2	-1
91	NC(=NC(=O)c1ccccc1)N1N=CCC1c1ccccc1 (stereo not drawn)	3	2
81	COC(C)c1cccc(-c2ncnc3ccsc23)c1 (stereo not drawn)	1	3

More records:
entry	SMILES	NPYLR7 agonist	NPYLR7 agonist max-min
101	Cc1ccc(CNC(=O)c2c(C)oc3nc[nH]c(=O)c23)cc1	-2	-3
102	CN(C)S(=O)(=O)Nc1ccc2c(c1)NC(=O)CC2c1cc2ccccc2o1 (stereo not drawn)	-6	-6
103	Cc1ccc(NC(=O)c2sc(=O)n(Cc3ccc(C(C)C)cc3)c2C)cc1	2	1
104	N#Cc1c(F)cccc1NCCc1cc(F)cc2c1OCOC2	17	16
105	O=C1Cc2cc(=O)[nH]c(O)c2C(=O)N1	6	7
106	c1nc(NCCN2CCOCC2)c2c3c(sc2n1)CCCC3	-1	-5
107	CCc1nc2n(n1)C(=O)C(C(c1cccc(C)c1)N1CCC(C)CC1)S2 (stereo not drawn)	-1	26
108	CC[C@H]1CN(C(=O)c2cc(C)sc2NC(=O)C(C)(C)C)CC[C@@]1(C)O	-1	-12
109	CC(NCc1cnc2ccnn2c1)c1ccc2c(c1)CCCC2 (stereo not drawn)	5	0
110	CN(CC(=O)NCCc1cccs1)CC(=O)Nc1ccc(F)cc1	3	1

Screening data: PubChem BioAssay, Fisher Drug Discovery Resource Center
